RecA splice inh – Mtb RecA intein splicing inhibitors, primary screen, biochemical, fluorescence, HTS; 290,000 compounds, 0.75% hits; Protein RecA (Mycobacterium tuberculosis (strain ATCC 25618 / H37Rv)), P9WHJ3; inhibition, %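 (about 9 µM by stock and volumes)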; cell-free RecA intein splicing; in the data active = inhibition above about 30%; inconclusive = no clear call, values can overlap the other calls;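 also: 0% = vehicle wells and 100% = reference inhibitor control wells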
Target sequence (P9WHJ3 whole entry, looked up, canonical isoform): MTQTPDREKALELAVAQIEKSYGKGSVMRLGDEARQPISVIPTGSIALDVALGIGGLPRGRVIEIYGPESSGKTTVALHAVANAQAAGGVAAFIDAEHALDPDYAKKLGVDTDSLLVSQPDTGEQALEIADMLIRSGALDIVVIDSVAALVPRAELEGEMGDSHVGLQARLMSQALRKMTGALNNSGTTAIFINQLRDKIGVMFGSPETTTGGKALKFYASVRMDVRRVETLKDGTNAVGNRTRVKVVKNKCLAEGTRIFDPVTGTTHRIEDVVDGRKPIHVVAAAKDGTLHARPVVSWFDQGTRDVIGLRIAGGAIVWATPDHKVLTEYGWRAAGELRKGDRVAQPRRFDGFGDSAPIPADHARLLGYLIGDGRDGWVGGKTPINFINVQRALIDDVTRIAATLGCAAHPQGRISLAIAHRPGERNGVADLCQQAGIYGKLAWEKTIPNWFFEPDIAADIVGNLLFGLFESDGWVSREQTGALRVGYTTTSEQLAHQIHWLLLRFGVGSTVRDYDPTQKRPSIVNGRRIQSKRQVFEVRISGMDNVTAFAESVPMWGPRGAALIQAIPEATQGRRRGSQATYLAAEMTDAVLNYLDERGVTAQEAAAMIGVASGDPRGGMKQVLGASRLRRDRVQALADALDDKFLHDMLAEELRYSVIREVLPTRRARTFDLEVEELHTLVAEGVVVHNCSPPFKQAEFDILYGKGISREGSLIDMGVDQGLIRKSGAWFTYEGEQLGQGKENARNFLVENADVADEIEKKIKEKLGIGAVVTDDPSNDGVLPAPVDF
Mtb H37Rv – M. tuberculosis H37Rv growth inhibitors, H37Rv strain (AID 1626). M. tuberculosis H37Rv growth inhibition; higher % means a stronger effect. 220,000 compounds, 0.95% hits. inhibition, % at 10 µM; hits with a dose series show IC50 in µM;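 active = confirmed in a dose series; inconclusive = inhibition above 80% but not taken into the dose series; inactive = below 80% or under 30% at every dose of the series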;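 also: bacteria incubated seven days before Alamar blue readout; 0% = bacteria only wells and 100% = bacteria with antibiotic wells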
Arbovirus anti – antivirals against arbovirus infection, primary screen, cell-based, full library, 10K replicate subset. arbovirus infection cell-based antiviral screen. inhibition, % at 10 µM. 200,000 compounds, 0.37% hits;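 active = inhibition from about 30%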;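 also: bluetongue infection of BSR cells; cell survival read as ATP light after 72 h; 0% = infected wells without compound and 100% = uninfected wells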
Mtb betalactam – beta-lactam sensitization of Mtb H37Rv, H37Rv; 330,000 compounds, 0.27% hits; inhibition, % at 25 µM; M. tuberculosis H37Rv growth with meropenem, percent inhibition; hits of this screen are not shown here; AID 434955, 2010;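 active = about 74% or more and at least 40 points above the plate without the antibiotic, then above 30% in a dose series; inconclusive = first-round hits that could not be retested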;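 also: growth measured after seven days incubation then overnight dye step; 0% = bacteria only wells and 100% = bacteria with antibiotic; twin plates without the antibiotic show which effects depend on it; some results filed as inactive read as strong as hits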
YopH inh – YopH tyrosine phosphatase inhibitors, primary screen, biochemical, fluorescence Ex485/Em525. YopH tyrosine phosphatase [Yersinia enterocolitica]. inhibition, %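 (about 10 µM by stock and volumes)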. 140,000 compounds, 0.16% hits. AID 898, 2007;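 active = inhibition of 50% or more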;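 also: controls were vehicle for no effect and minimum signal wells for full effect; inactives centre near -20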
Arbovirus anti repeat – second read-out of Arbovirus anti, no call of its own (marks repeat the call); inhibition, %; measured here: 10K subset replicate screen; many hits read low in the repeat;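 first of two repeat runs on a subset; 0% = infected and 100% = uninfected wells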
* = called active by the depositor; ? = inconclusive; / = not tested or not shown. Not all compounds are listed. The share of hits here may be higher or lower than overall.

SMILES	RecA splice inh	Mtb H37Rv	Arbovirus anti	Mtb betalactam	YopH inh	others
CCOc1ccc(C/C(O)=C2\C(=O)CC(C)(C)CC2=NCC(=O)O)cc1OCC	-1.9	2%	0	0	/
CN(C)S(=O)(=O)c1ccc(S(=O)(=O)NCCN2CCOCC2)cc1	0.9	/	/	1	/
CCOc1ccc(Nc2nc3ccccc3n3nnnc23)cc1	-1.5	8%	-3	-2	6
COc1cccc(-c2nc(CS(=O)CC(=O)NC3CC3)c(C)o2)c1 (stereo not given)	-1.3	26%	4	-2	/	Arbovirus anti repeat=-1
O=C(NCCc1ccccc1)c1cc(S(=O)(=O)N2CCOCC2)ccc1F	-2.1	-8%	2	1	12
Cc1cc(C)cc(C(=O)n2cnnc2N)c1	15	-3%	7	7	-12
O=C(CSc1nnnn1C1CCCCC1)Nc1ccccc1F	-0.3	1%	-2	-1	/
N#Cc1ccc(-c2csc(NC(=O)c3ccc(S(=O)(=O)N4CCc5ccccc5C4)cc3)n2)cc1	-2.0	5%	-9	4	-18
C/C=C/c1ccc(OCCCCN2CCC(C)CC2)c(OC)c1	11	5%	-11	1	/
O=C(NC(=S)Nc1ccccc1O)c1ccc(-c2ccc(Cl)cc2)o1	2.8	?	-12	89	-24
CCN1CCN(CC(=O)Nc2ccccc2)C(=O)C1=O	-0.7	-2%	4	-6	-36	Arbovirus anti repeat=1
CCC(=O)Nc1cccc(-c2cc3ccccc3oc2=O)c1	-1.0	7%	-7	-5	/
COc1ccc(-c2n[nH]c(=S)n2-c2ccc(C)cc2)cc1	0.1	-2%	/	-1	/
Cc1noc(/C=C/N(C)C)c1S(=O)(=O)NC1CCCCC1	4.7	0%	1	-12	-32
Clc1cccc(-c2sc(Nc3ccccc3)n[n+]2-c2ccccc2)c1Cl	6.7	/	/	-7	/

The final two records of the section above open the next one:
SMILES	RecA splice inh	Mtb H37Rv	Arbovirus anti	Mtb betalactam	YopH inh	others
Cc1noc(/C=C/N(C)C)c1S(=O)(=O)NC1CCCCC1	4.7	0%	1	-12	-32
Clc1cccc(-c2sc(Nc3ccccc3)n[n+]2-c2ccccc2)c1Cl	6.7	/	/	-7	/
Cc1ccc(N(CC(=O)NC(C)(C)C)C(=O)CCC(=O)Nc2nccs2)c(C)c1	-1.0	/	/	-1	/
COc1ccc(C(=O)Nc2ccc(N3CCN(C(C)=O)CC3)cc2)cc1[N+](=O)[O-]	0.1	-3%	-1	0	/
O=C(c1cnn2c(C(F)(F)F)cc(-c3ccc4c(c3)OCO4)nc12)N1CCCC1	-2.9	-2%	-5	-5	-15
CCn1ccc(C(=O)Nc2ccccc2SC)n1	0.2	4%	-5	3	/
Fc1cccc(C[n+]2csc3ccccc32)c1	1.6	6%	-7	1	-14
O=C(CSCc1c(Cl)cccc1Cl)Nc1nccs1	1.4	-3%	-2	5	33
CCCC(=O)Nc1ccc(-c2cnc(-c3ccc(NC(=O)CCC)cc3)nc2)cc1	-0.5	4%	-8	9	-27
Cc1cc(C(=O)CSc2nnc(-c3ccccc3F)o2)c(C)n1Cc1cccs1	7.2	-2%	-1	3	-28
CCN(c1ccccc1)S(=O)(=O)c1ccc(OC)c(NC(=O)CCc2nc3ccccc3c(=O)[nH]2)c1	-1.9	/	/	-15	/
Cc1cc(C)c2oc(C(=O)Nc3nnc(C(C)C)s3)cc(=O)c2c1	-0.5	-3%	-2	14	-16
CCCCCCn1c(O)c(C=NCCCn2ccnc2)c(=O)[nH]c1=O	-0.2	-2%	-4	-6	2
Cc1cc(=O)n2nc(N3CCCC3C(=O)NCCCN3CCCCC3)sc2n1 (stereo not given)	-1.9	1%	3	-4	-12
CCN1CCN(C(=O)c2cc3cc4cc(OC)ccc4nc3s2)CC1	-4.3	/	3	5	-21
Cc1cc(C)c(C(=O)N(C)C2CCCN(Cc3ccccc3F)C2)o1 (stereo not given)	-0.4	/	/	-5	/
CCN(C(=O)CSc1nc2ccc(OC)cc2[nH]1)C1CCS(=O)(=O)C1 (stereo not given)	0.1	/	/	-8	/
COc1ccc(N2CC(C(=O)NCCC3=CCCCC3)CC2=O)cc1 (stereo not given)	-3.6	-3%	-3	-2	4
CCOc1ccc(NC(=O)CCNS(=O)(=O)c2ccc3c(c2)oc(=O)n3C)cc1	0.3	/	/	-6	/
CC(C)Cc1nnc(NC(=O)CSc2nc(=O)cc(N)n2-c2ccccc2)s1	0.6	5%	-3	-15	-41
CSCC(=O)NCC1(N(C)Cc2ccccc2)Cc2ccccc2C1	0.8	/	/	2	/
O=C(/C=C/c1ccccc1Cl)c1cccnc1	-1.1	-8%	-48	-2	-23
COc1ccc(OC)c(/C=N/NC(=O)c2cc3c(OC)cc(OC)cc3[nH]2)c1	-0.2	1%	/	2	/
O=C(NN=C1CCCC1)c1ccccc1OCCOc1ccccc1	5.7	3%	-4	-1	/
Cc1ccc(NS(=O)(=O)c2ccc(C(=O)N3CCN(c4ccccn4)CC3)cc2)cc1	4.8	-1%	10	2	-3
COc1ccc(CCNC(=O)c2ccc(CN3CCOCC3)cc2)cc1	-1.1	-6%	-6	8	-7
O=[N+]([O-])c1ccc(S(=O)(=O)N2CCN=C2SCc2ccc(F)cc2)cc1	-0.7	/	/	-7	/
Clc1ccc(-n2nnnc2Sc2ncnc3sccc23)cc1	39*	63µM*	/	100	-27
CCc1ccc(OCC(=O)Nc2cccc3nsnc23)cc1	-3.4	35%	5	87	/
CCN(CC)C(=O)C1CCN(S(=O)(=O)c2c(C)noc2/C=C/c2cccc(C)c2)CC1	4.8	/	/	1	/
COC(=O)C1=C(C)N(c2ccc(C)cc2)/C(=C/c2ccc(O)cc2)C1=O	-1.3	8%	2	-2	/
CC1(C)NC(C)(C)C(O)(C(N)=O)C1=O (stereo not given)	0.6	-2%	1	-5	-42
Cc1ccc2nc(N3CCN(c4cccc(C)c4C)CC3)c3nnnn3c2c1	1.9	-8%	6	-8	-27
Cc1ccccc1NS(=O)(=O)c1nnc(NC(=O)C(C)C)s1	-1.1	/	/	0	/
Cc1cc(CSc2ccccc2)ccc1NC(=O)COc1ccccc1C	-3.0	-1%	-5	90	-17
CCCNC(=O)NC(=O)CSc1nc2ccccc2n1CC(C)C	2.9	0%	3	1	-42
COc1ccc(-c2c(C)nc3c(-c4ccsc4)cnn3c2N)cc1	-0.8	/	/	0	/
Cn1c(=O)c2c(-c3ccc(OC(F)F)cc3)cc(-c3ccccc3)nc2n(C)c1=O	-0.4	0%	/	0	/
COC(=O)c1[nH]c2cc(OC)c(OC)cc2c1/C=N/Nc1ccccc1	-1.8	/	/	54	/
CCCCn1c(Nc2ccccc2)nc2ccccc21	-2.0	1%	2	-3	-2
O=C(NCc1ccc2c(c1)OCO2)C(=O)NCC(c1ccco1)N1CCN(c2ccccc2)CC1 (stereo not given)	-2.0	64%	-10	65	/
COc1ccc(N=Cc2c(O)n(CC3CCCO3)c(=O)[nH]c2=O)cc1 (stereo not given)	-6.6	?	-21	89	-20
CCOc1ccc(S(=O)(=O)Nc2cccc(-c3ccc(N4CCCCCC4)nn3)c2)cc1	5.4	/	/	-1	/
CCNC(=S)N/N=C/c1ccc(C(=O)O)cc1	0.9	-15%	7	-3	/
Cc1ncoc1C(=O)Nc1nccs1	7.7	-6%	-3	2	-55
CC(=O)Oc1ccc(-c2csnn2)cc1	9.1	8%	2	53	-50
O=C(Nc1ccccc1)C1=C[C@@H](C2CCCCC2)C[C@@H](OCCCCO)O1	4.9	11%	1	-1	/

For reference, part of the list above:
SMILES	RecA splice inh	Mtb H37Rv	Arbovirus anti	Mtb betalactam	YopH inh	others
CCOc1ccc(C/C(O)=C2\C(=O)CC(C)(C)CC2=NCC(=O)O)cc1OCC	-1.9	2%	0	0	/
CN(C)S(=O)(=O)c1ccc(S(=O)(=O)NCCN2CCOCC2)cc1	0.9	/	/	1	/

(more compounds)
SMILES	RecA splice inh	Mtb H37Rv	Arbovirus anti	Mtb betalactam	YopH inh	others
CCN(CC)CCN(C(=O)c1ccc2c(c1)OCCO2)c1nc2ccc(C)cc2s1	1.3	/	/	-4	/
COc1cc(-c2[nH]ncc2CN2CCc3sccc3C2)cc(OC)c1OC	2.2	-6%	2	1	/
COCC1CCN(Cc2nc(-c3ccc(OC)cc3)no2)CC1	-1.5	3%	1	4	/
COc1cccc(C2C(C(=O)c3cc4ccccc4o3)=C(O)C(=O)N2CCN2CCOCC2)c1 (stereo not given)	0.0	/	/	0	/
O=c1cc(N2CCN(Cc3ccccc3)CC2)[nH]c(=O)n1-c1ccc(Br)cc1	-0.4	2%	6	3	-44
O=C(O)CCCn1cc(NC(=O)c2sc3ccccc3c2Cl)cn1	1.3	/	/	-4	/
CCOc1ccccc1CN1C(=O)c2ccccc2C1C(=O)NCC1CCCO1 (stereo not given)	17	2%	5	-1	-21
Cc1cccc(C(=O)NCC(=O)OCCOc2ccccc2Cl)c1	-2.4	/	/	-12	/
CCC(C)n1c(-c2cccc(S(=O)(=O)N(CC)CC)c2)n[nH]c1=S (stereo not given)	1.9	-8%	7	-5	/
CC(NC(=O)CN1CCN(S(=O)(=O)c2ccc(Br)cc2)CC1)c1ccccc1 (stereo not given)	3.2	/	/	-5	/
CCOc1cc(C)c(S(=O)(=O)Nc2ccc3cn[nH]c3c2)cc1C	/	8%	-10	7	-38
CSc1ccccc1NC(=O)CCn1c(=O)sc2ccccc21	0.8	3%	-5	6	3
O=C(Nc1ccnn1C1CCN(Cc2ccc3nonc3c2)CC1)c1cccc(F)c1	-0.7	/	/	2	/
CCOC(=O)c1nnn(CC(=O)Nc2cccc(Cl)c2C)c1C(=O)OCC	-2.6	-1%	14	-4	-20
Cc1ccc(S(=O)(=O)NCCCN2CCOCC2)cc1C	0.2	-3%	-1	-5	-17
CC(=O)Nc1c(C)nn(-c2ccc(C)c(C)c2)c1C	-4.4	-14%	-3	-6	-38
COc1ccc(CNC(=O)C2CCCN(S(=O)(=O)c3c(C)n[nH]c3C)C2)cc1 (stereo not given)	1.8	7%	1	0	-28
COc1cccc(C(=O)N/N=C2/SCC(=O)N2CCc2ccc(OC)c(OC)c2)c1	0.2	-4%	0	-2	-17
Cc1cccc(OCCOC(=O)C2CCN(S(=O)(=O)c3ccc(C)c(C)c3)CC2)c1	6.2	/	/	-13	/
CCOC(=O)c1[nH]c(C)c(C(=O)NCCCN2CCOCC2)c1C	2.3	-2%	2	-4	0
C1=C(CCNc2ncnc3c2cnn3-c2ccccc2)CCCC1	-8.2	4%	-3	62	/
Cc1nnc(SCC(=O)Nc2ccccc2F)n(N)c1=O	-1.6	/	/	-5	/
CCc1nnc(NC(=O)CCC(=O)Nc2ccc(C)cc2)s1	0.6	/	/	5	/
CC(C)CC(=O)NC(=S)Nc1cccc(NC(=O)c2ccccc2)c1	-0.1	14%	1	1	-5
O=C(N/C(=C/c1cccc(Br)c1)c1nc(=S)[nH][nH]1)c1ccccc1	12	12%	-49	93	-30
Cc1ccc(OCC(=O)NNC(=O)c2cc(C)[nH]n2)cc1	-0.1	1%	-2	-10	-27
CC(=O)c1c(C)[nH]c(C(=O)OCc2ccc([N+](=O)[O-])cc2)c1C	5.0	/	/	-7	/
COc1cc2c(cc1NC(=O)CSc1nc3ccccc3[nH]1)oc1ccccc12	4.5	10µM*	6	99	-29
Cc1nc2ccc(NC(=O)c3ccc4ccccc4n3)cc2s1	3.8	-4%	-14	-5	/
N#CCCn1nnc2ccccc21	1.7	-6%	5	4	-32
O=C(/C=C/c1cccc(Br)c1)NC1CCN(Cc2ccccc2)CC1	0.0	/	/	5	/
COc1cc2c(cc1OC)CN(C(=S)Nc1ccc(C)cc1C)CC2	0.3	1%	1	2	-21
CCOC(=O)c1[nH]c2ccccc2c1NC(=O)CCN1CC(C)OC(C)C1 (stereo not given)	-1.3	4%	-5	-6	-16
O=C(c1ccco1)N1CCN(S(=O)(=O)Cc2ccc(Cl)cc2)CC1	-1.1	-9%	3	-2	-16
COc1ccc(N2CCN(C(CNC(=O)COc3ccccc3)c3ccco3)CC2)cc1 (stereo not given)	-0.8	/	/	-6	/
CCC(C)[C@H]1COCCS(=O)(=O)N1Cc1ccc(Cl)cc1Cl (stereo not given in full)	9.1	/	/	-1	/
O=C(CCCn1cncn1)N1CCCC(Nc2ccc(F)cc2)C1 (stereo not given)	-1.8	/	/	-2	/
COc1ccc(/C=C/C(=O)OCC(=O)NCc2ccco2)cc1OC	-0.8	-3%	-7	0	-26
CC1CCCCC1NC(=O)COC(=O)COc1ccccc1Cl (stereo not given)	-1.0	-8%	1	1	/
Cc1ccc(N(C(=O)c2csnn2)C(C(=O)NC2CCCCC2)c2ccncc2)c(C)c1 (stereo not given)	-0.8	/	/	-9	/

Source: PubChem BioAssay (several laboratories)
